Bioassay records as filed in PubChem.
GLA inh pH 4.5 – alpha-galactosidase A (human) inhibition, pH 4.5; purified enzyme, 4-MU-alpha-Gal fluorescence, pH 4.5; AID 1467; activity change, negative = inhibition, % at 105 µM; 230,000 tested, under 10 active; inconclusive = small, poorly fitted or top-dose-only inhibition, or a rising curve; inactive = flat fitted curve, though single readings scatter; no compound was filed as active;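 note: 0% = full activity with enzyme and -100% = basal without enzyme; dose as in the result columns while the protocol names 77 µM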
Target sequence (P06280 whole entry, looked up): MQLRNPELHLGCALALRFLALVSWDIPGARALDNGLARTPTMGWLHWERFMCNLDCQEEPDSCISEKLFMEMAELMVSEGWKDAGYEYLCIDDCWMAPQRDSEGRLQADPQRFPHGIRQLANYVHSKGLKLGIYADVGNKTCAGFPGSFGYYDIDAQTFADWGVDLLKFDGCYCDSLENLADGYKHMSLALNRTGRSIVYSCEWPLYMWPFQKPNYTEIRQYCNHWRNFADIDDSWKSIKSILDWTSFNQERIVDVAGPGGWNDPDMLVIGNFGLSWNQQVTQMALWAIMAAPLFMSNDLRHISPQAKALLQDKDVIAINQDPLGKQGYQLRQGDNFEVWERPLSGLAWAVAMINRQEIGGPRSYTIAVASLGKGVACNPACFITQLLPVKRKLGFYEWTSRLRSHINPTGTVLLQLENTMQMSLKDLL
* hit, by the source's call; & = joins results of further samples. Not all compounds are listed. The share of hits here may be higher or lower than overall.

SMILES	GLA inh pH 4.5
CCC1C(=O)OCC1Cc1cncn1C (centres undefined)	-16&-4
